# Source: PubChem
# p53 PUMA act: restores mutant p53 pathway signaling in SW480 cells; SW480 PUMA-promoter luciferase, p53 mutant reactivation; activation, % at 9.98 µM; 28,000 compounds, 1.5% hits; in the data active = activation above about 52%
# * hit, by the source's call; & = joins results of further samples. An excerpt; most or all hits stand in other tables.
COCCCC/C(=N\OCCN)c1ccc(C(F)(F)F)cc1
  p53 PUMA act = 0

CCOC(=O)c1c(-c2ccc(C)o2)csc1NC(=S)NC(=O)c1ccccc1Br
  p53 PUMA act = 7

CC(=O)O[C@H]1C[C@@]2(C)[C@@H](C[C@@H](O)[C@H]3[C@@]4(C)CC[C@@H](O)[C@@H](C)C4CC[C@@]32C)/C1=C(\CCC=C(C)C)C(=O)O (some centres not stated)
  p53 PUMA act = -19

CC(C)NC(=O)Nc1ccc2c(c1)C(=O)N([C@H](C)CO)C[C@H](C)[C@@H](CN(C)S(C)(=O)=O)O2
  p53 PUMA act = -1

COc1cc(OC)c(C(=O)/C=C/c2ccccc2)c(O)c1O
  p53 PUMA act = -18

CC1=C(C(=O)Nc2ccccc2C)C(c2cccnc2)n2nc(CCCO)nc2N1 (configuration not stated)
  p53 PUMA act = -3

CCCc1nn(C)c2c(=O)[nH]c(-c3cc(S(=O)(=O)N4CCN(C)CC4)ccc3OCC)nc12
  p53 PUMA act = -2

O=C(c1ccccc1NS(=O)(=O)c1cccc([N+](=O)[O-])c1)N1CCOCC1
  p53 PUMA act = -10

C(=C\c1ccccc1)/CN1CCN(C(c2ccccc2)c2ccccc2)CC1
  p53 PUMA act = 10

COc1ccc(C(=O)NC(CC(C)C)C(=O)O)cc1OC (configuration not stated)
  p53 PUMA act = -8

COc1cc2ncc(-c3ccccc3)nc2cc1OC
  p53 PUMA act = 11

CC[C@@H](CO)Nc1nc(NCc2ccccc2)c2ncn(C(C)C)c2n1
  p53 PUMA act = -10

Cc1c(Cl)cccc1NC(=O)COc1ccc(S(=O)(=O)N2CCOCC2)cc1
  p53 PUMA act = 3

Cc1noc(C)c1NC(=O)N(C)C[C@H]1Oc2ccc(NS(=O)(=O)c3cccs3)cc2C(=O)N([C@H](C)CO)C[C@H]1C
  p53 PUMA act = -3

CN1C(=O)C(CC(=O)Nc2ccc(F)cc2)N(Cc2ccco2)C1=S (configuration not stated)
  p53 PUMA act = 13

O=c1c2ccccc2[nH]c(=S)n1CCCn1ccnc1
  p53 PUMA act = 4

Cc1ccnc(SCC(=O)Nc2sc3c(c2C#N)CCC(C(C)(C)C)C3)n1 (configuration not stated)
  p53 PUMA act = -7

CCn1c(SCC(=O)N2CCc3ccccc32)nnc1-c1ccncc1
  p53 PUMA act = 1

Cc1ccc(C(=O)Cn2c(NCCO)nc3ccccc32)cc1
  p53 PUMA act = -7

CCC(C)c1c(O)nc(SCC(=O)c2ccccc2)[nH]c1=O (configuration not stated)
  p53 PUMA act = -13

CNc1nc(OCCNC(=O)Nc2ccccc2)nc(N2CCOCC2)n1
  p53 PUMA act = 7

COC(=O)C(C)N(c1ccc(OC)cc1)S(C)(=O)=O (configuration not stated)
  p53 PUMA act = -6

O=C(O)CN(c1ccc2c(c1)OCCO2)S(=O)(=O)c1ccccc1
  p53 PUMA act = -5

Cc1noc(C)c1NC(=O)N(C)C[C@H]1Oc2ccc(NS(=O)(=O)c3cccs3)cc2C(=O)N([C@H](C)CO)C[C@@H]1C
  p53 PUMA act = 9

O=C(Nc1ccc(Br)cc1)c1cccc(S(=O)(=O)Nc2ccccn2)c1
  p53 PUMA act = -1

# Molecules shown so far with an aryl methoxy group:
COc1cc(OC)c(C(=O)/C=C/c2ccccc2)c(O)c1O
  p53 PUMA act = -18

COc1ccc(C(=O)NC(CC(C)C)C(=O)O)cc1OC (configuration not stated)
  p53 PUMA act = -8

COc1cc2ncc(-c3ccccc3)nc2cc1OC
  p53 PUMA act = 11

COC(=O)C(C)N(c1ccc(OC)cc1)S(C)(=O)=O (configuration not stated)
  p53 PUMA act = -6

# Returning to the listing, repeating the two entries before the break.
Cc1noc(C)c1NC(=O)N(C)C[C@H]1Oc2ccc(NS(=O)(=O)c3cccs3)cc2C(=O)N([C@H](C)CO)C[C@@H]1C
  p53 PUMA act = 9

O=C(Nc1ccc(Br)cc1)c1cccc(S(=O)(=O)Nc2ccccn2)c1
  p53 PUMA act = -1

COc1ccc(C(=O)Nc2ccccc2)cc1S(=O)(=O)NCc1ccco1
  p53 PUMA act = 15

C[C@@H]1CN([C@H](C)CO)C(=O)c2cc(NC(=O)NC3CCCCC3)ccc2O[C@H]1CN(C)C(=O)Nc1ccc(C(F)(F)F)cc1
  p53 PUMA act = -27

COc1ccc(Cl)cc1NC(=O)NCc1cccnc1
  p53 PUMA act = 4

Nc1c(Br)cc(Br)cc1CNC1CCC(O)CC1 (configuration not stated)
  p53 PUMA act = 16&8

COC(=O)C1=C(C)NC(C)=C([N+](=O)[O-])[C@@H]1c1ccccc1C(F)(F)F
  p53 PUMA act = 13

c1ccc2c(c1)CCCc1cc(NCCN3CCOCC3)nnc1-2
  p53 PUMA act = 10

Cc1c(CCC(=O)O)c(=O)oc2c(C)c(OCc3ccccc3Cl)ccc12
  p53 PUMA act = 1

Cc1cc(C(F)(F)F)nc(SCC(=O)Nc2ccccc2)n1
  p53 PUMA act = 15

O=C(O)CCC(=O)Nc1ccc(Br)cc1C(=O)c1ccccc1
  p53 PUMA act = -10

CC(=O)OC1C(=O)C2(C)C(O)CC3OCC3(OC(C)=O)C2C(OC(=O)c2ccccc2)C2(O)CC(OC(=O)C(O)C(NC(=O)c3ccccc3)c3ccccc3)C(C)=C1C2(C)C (configuration not stated)
  p53 PUMA act = 12

COC(=O)Cc1c(C)nc2nc(Cc3ccccc3)[nH]n2c1=O
  p53 PUMA act = 3

# 2 entries from above, bar-delimited:
mol | p53 PUMA act
Cc1cc(C(F)(F)F)nc(SCC(=O)Nc2ccccc2)n1 | 15
COc1ccc(C(=O)Nc2ccccc2)cc1S(=O)(=O)NCc1ccco1 | 15
